RE007 growth inh: less growth of the S. pombe RE007 Vpr strain. AID 651644. Potency, µM (top dose mostly 92.2 µM), inactives show at the highest dose activity change, negative = less growth. 360,000 tested, 0.21% active. S. pombe RE007 Vpr strain, BacTiter-Glo ATP luminescence, 24 h; control for the full effect not named in the record; active = well fitted falling curve with a large enough effect; inconclusive = small, poorly fitted or top-dose-only effect; inactive = no such curve, though single readings can be large or run the other way;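 further: on the % scale 0 is the no-effect control and ±100 the full control effect; nearly all actives have a fitted effect of over 50% in size; the assay follows cell death caused by Vpr and the record does not say whether a fall means rescue or toxicity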
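Fission yeast RE007 carrying one integrated HIV-1 vpr copy, seeded at OD 0.01 in PMG+AL medium with 23 nL pinned compound. Grown 24 h at 30 degrees; viability read by BacTiter-Glo luminescence after 5 min.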
Cruzain inh Det: cruzain (T. cruzi) inhibition with detergent. 200,000 tested, 0.43% active. Potency, µM, inactives show max response, negative = inhibition, usual class: inhibitors. purified cruzain, Z-FR-AMC fluorescence, 0.01% Triton;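 further: plate controls were neutral wells for no effect and buffer without enzyme for full effect; nearly all actives have a fitted effect of over 40% in size; top concentration of the series not given in the record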
Target sequence (P25779 123-467 limits assumed): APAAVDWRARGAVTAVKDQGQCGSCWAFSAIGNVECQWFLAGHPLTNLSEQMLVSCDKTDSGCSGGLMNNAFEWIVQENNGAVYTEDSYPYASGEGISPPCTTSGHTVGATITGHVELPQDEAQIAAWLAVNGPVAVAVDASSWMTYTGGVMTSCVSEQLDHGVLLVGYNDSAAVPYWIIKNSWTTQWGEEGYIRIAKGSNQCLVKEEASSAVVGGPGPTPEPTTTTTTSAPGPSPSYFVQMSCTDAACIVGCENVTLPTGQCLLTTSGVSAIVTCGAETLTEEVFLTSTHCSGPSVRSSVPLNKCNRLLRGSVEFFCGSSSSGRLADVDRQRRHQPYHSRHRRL
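Steps: dispense cruzain (1.5 nM final) in acetate buffer pH 5.5 with DTT and 0.01% Triton X-100; pin-transfer compounds; incubate 15 min RT; add Z-FR-AMC (2 uM final); read fluorescence every 30 s, using the 60 s intensity change.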
NS1 inh: inhibitors of influenza NS1 protein function; AID 2326; S. cerevisiae slowed by influenza A NS1, growth recovery by OD600; Potency, µM (highest dose often 46.1 µM), for inactives: top-dose activity, positive = more growth; 270,000 tested, 0.4% active; active means well fitted rising curve with a large enough effect; inconclusive means small, poorly fitted or top-dose-only effect; inactive means no such curve, though single readings can be large or run the other way; further: nearly all actives have a fitted effect of over 50% in size
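Growth recovery, yeast-based: influenza A NS1 expressed in S. cerevisiae causes slow growth, and suppressors are detected by OD600. The parent strain without NS1 is used as positive control.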
MARV entry inh: Marburg virus entry inhibition | Marburg virus pseudotyped entry inhibition, cell reporter; control for the full effect not named in the record; about a third of the inactives were read at about 46 µM | Potency, µM (highest dose often 37.8 µM), inactives show top-dose activity change, negative = inhibition, usual class: inhibitors | 300,000 tested, 1.8% active | AID 540276; active = well fitted inhibition curve with a large enough effect; inconclusive = small, poorly fitted or top-dose-only effect, or effect the other way; inactive = flat fitted curve, though single readings scatter; tested in HEK293 cells; about a fifth of its hits are not listed in these tables; further: on the % scale 0 is the no-effect control and ±100 the full control effect; luciferase read-out
LASV entry inh: Lassa virus entry inhibition | Lassa virus pseudotype entry inhibition, cell reporter; control for the full effect not named in the record | Potency, µM (doses to about 37.9 µM), without a hit: at the highest dose activity change, negative = inhibition, most hits filed as inhibitors | 300,000 tested, 1.2% active | AID 540256; active means well fitted inhibition curve with a large enough effect; inconclusive means small, poorly fitted or top-dose-only effect, or effect the other way; inactive means flat fitted curve, though single readings scatter; tested in HEK293 cells; further: on the % scale 0 is the no-effect control and ±100 the full control effect; nearly all actives have a fitted effect of over 50% in size; luciferase read-out
SARS PLpro yeast: inhibitors of SARS-CoV papain-like protease in yeast | 330,000 tested, 0.19% active | S. cerevisiae expressing SARS-CoV PLpro, growth rescue; control for the full effect not named in the record | AID 485353 | Potency, µM (top dose mostly 32.9 µM), inactives show at the top dose activity, positive = growth rescue; active means well fitted rising curve with a large enough effect; inconclusive means small, poorly fitted or top-dose-only effect; inactive means no such curve, though single readings can be large or run the other way; further: 0% is about no effect; nearly all actives have a fitted effect of over 55% in size; growth read by luminescence after 48 h
Cruzain inh noDet: blocks cruzain activity in detergent-free assay; 200,000 tested, 2.3% active; purified cruzain, Z-FR-AMC fluorescence, no detergent; Potency, µM, without a hit: max response, negative = inhibition, most hits filed as inhibitors; P25779;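 further: plate controls were enzyme without inhibitor for no effect and buffer without enzyme for full effect; nearly all actives have a fitted effect of over 40% in size; top concentration of the series not given in the record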
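Purified cruzain at 1.5 nM, pre-incubated 15 min with compound at room temperature in 100 mM sodium acetate pH 5.5, 5 mM DTT, 0.00005% Triton X-100. Reaction started with 2 uM Z-FR-AMC; AMC fluorescence increase over 60 s gives rate.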
2A StopGo: lowers the luciferase signal of an FMDV 2A StopGo reporter | human cells with a luciferase reporter of 2A StopGo recoding; control for the full effect not named in the record | Potency, µM (doses to about 57.9 µM), for the others: at the highest dose signal change, negative = less light | 410,000 tested, 1.2% active | AID 1159524; active = well fitted falling curve with a large enough effect; inconclusive = small, poorly fitted or top-dose-only effect; inactive = no such curve, though single readings can be large or run the other way; tested in HEK293T cells; further: on the % scale 0 is the no-effect control and ±100 the full control effect; nearly all actives have a fitted effect of over 45% in size; luciferase light after 4 h
The depositor's hits bear a star; ? = inconclusive; nt = not tested or not shown; & = joins results of further samples; [ ] = dose if it differs, or a comment. Unless noted, the call rests on the fitted dose curve; in most records, active means well fitted curve in the direction sought with a large enough effect; inconclusive means small, poorly fitted or top-dose-only effect, or another doubt; inactive means no such curve, though single readings can be large; an effect the other way counts as inactive or inconclusive. Potency means the concentration at half of the fitted maximal effect.

Structure	RE007 growth inh	Cruzain inh Det	NS1 inh	MARV entry inh	LASV entry inh	SARS PLpro yeast	Cruzain inh noDet	2A StopGo
CC(C)Cn1c2c(c(O)c(C(=O)Nc3ncccc3O)c1=O)CCCC2	-18%	-2.3%	-9%	-10%	-6%	6%	-9%	-26%
CCOc1ccc(N2CC(=O)N/C2=N\c2nc(C)cc(C)n2)cc1	14%	0.3%	0%	10%	10%	-1%	0%	-8%
O=c1[nH]c(Nc2ccc(F)cc2)cc2ccccc12	-25%	-12%	-49%	2%&1%	-2%	-28%	-3%	-15%
CCCCn1nc(C)c(C(=O)O)c1Cl	9%	nt	-13%	nt	nt	3%	nt	-11%
COc1cc(Nc2nc3ccc(Cl)cc3nc2-n2nc(C)cc2C)cc(OC)c1	nt	0.3%	nt	1%[46.1 µM]	10%[46.1 µM]	nt	-4%	-4%
Cc1ccc(-c2csc3ncnc(Oc4cccc5ccc(C)nc45)c23)cc1	-17%	-6.4%	1%	6%	nt	-5%	?	6%
Cc1onc(-c2c(F)cccc2Cl)c1C(=O)OCc1cnc(Cl)s1	7%	nt	2%	nt	nt	0%	nt	-16%
C=CCNC(=S)NNC(=O)c1ccc(=O)n(Cc2ccccc2)c1	8%	nt	nt	11%[46.1 µM]	0%	-1%	nt	-7%
Cc1ccc(NC(=O)Nc2ccccc2C#N)c(Cl)c1	14%	-2.1%	-6%	22%[46.1 µM]	15%	-7%	-2%	2%
N#Cc1ccc(OCc2nnc(SCC(=O)c3ccccc3)n2-c2ccccc2)cc1	-4%	-4.8%	5%	-10%	?	-14%	-9%	-28%
O=C(NCc1ccccc1)C1=C[C@@H](c2ccccc2)C[C@@H](OCc2ccc(CO)cc2)O1	-12%	nt	-2%	nt	nt	-3%	nt	17%
COCCCNc1oc(-c2ccc(COc3ccccc3C)o2)nc1C#N	nt	-7.5%	nt	?	-17%[46.1 µM]	nt	?	-21%
C=CCSc1ncnc2c1oc1nc3c(cc12)COC(C)(C)C3	-3%	nt	1%	8%[46.1 µM]	19%	0%	nt	59%[activator]
COc1ccc(-c2cn[nH]c2N)cc1	6%	4.4%	9%	3%	21%	-12%	-17%	12%
O=C(c1cc(-c2ccco2)on1)N1CCOCC1	-5%	3.0%	-6%	?	42%[14.3 µM]	0%	-1%	97%[activator]
COC(=O)c1ccccc1NC(=O)CCC(=O)N1CC(C)Sc2ccccc21 (configuration not stated)	nt	-6.4%	nt	nt	21%[46.1 µM]	nt	3%	-29%
CCCCNC(=O)NC(C(=O)OC)C12CC3CC(CC(C3)C1)C2 (configuration not stated)	4%	nt	nt	0%	1%	-3%	nt	0%
COc1cccc(CSc2nnc(-c3ccncc3)n2N)c1	0%	nt	7%	?	?	3%	nt	-2%
CCC(Sc1nnc(C)n2c1cc1occc12)C(=O)Nc1ccccc1F (configuration not stated)	nt	2.5%	nt	nt	6%[46.1 µM]	nt	16%	0%
COc1cc(/C=C2\SC(=S)N(NC(C)=O)C2=O)ccc1OC(=O)c1ccco1	-5%	nt	nt	5%	0%	-1%	nt	8%
C=CCNc1nc(-c2ccc([N+](=O)[O-])cc2)cs1	-2%	-10%	0%	?	-1%	-31%	-8%	-3%
O=C(OCc1cccc(C(F)(F)F)c1)c1cc([N+](=O)[O-])ccc1N1CCOCC1	4%	nt	nt	-22%	0%	-3%	nt	-11%
CCc1ccccc1NC(=O)c1cc2nc(-c3ccc(Br)cc3)cc(C(F)(F)F)n2n1	nt	1.4%	nt	nt	7%[46.1 µM]	nt	1%	-6%
O=S(=O)(O)c1cc2onnc2c2ccccc12	-1%	nt	nt	19%[46.1 µM]	2%[46.1 µM]	nt	nt	-4%
Cc1[nH]c(C)c(S(=O)(=O)N2CCN(c3ccc(Cl)cc3)CC2)c1C(=O)N1CCCC1	-6%	nt	-8%	nt	nt	11%	nt	-10%
COc1cccc(CN(C)C(=O)c2ccc(COc3ccc(Cl)cc3)cc2)c1OC	9%	nt	-56%	10%[46.1 µM]	-22%	-8%	nt	-3%
COC(=O)c1ccc(NC(=O)c2ccc[n+]([O-])c2)cc1	12%	nt	-1%	3%[46.1 µM]	19%	1%	nt	18%
CCOCCCNC(=O)CNC(=S)N(Cc1ccccc1F)C1CCCCC1	-2%	3.0%	-11%	-6%	-8%	-1%	?	16%
COC(=O)c1ccc(/C=N/OCC(=O)Nc2cc(F)ccc2F)cc1	3%	nt	nt	14%[46.1 µM]	4%[46.1 µM]	0%	nt	-3%
CCC(Cc1ccccc1)NC(=O)/C=C/c1ccco1 (configuration not stated)	2%	nt	8%	1%	-10%	-5%	nt	-4%
Oc1ccc(-c2[nH]ncc2-c2cccc3cccnc23)c(O)c1	10%	-3.3%	-2%	?	-33%	-4%	-7%	nt
CCCCCCCC(=O)NNC(=O)CC(=O)Nc1ccccc1C(=O)O	-21%	0.8%	10%	?	?	-14%	-4%	-16%
O=C(Nc1ccccc1)C1C(c2ccccc2)C1(Cl)Cl (configuration not stated)	6%	nt	-128%	-25%	?	-33%	nt	-13%
CC(C)(Oc1ccc(Cl)cc1)C(=O)NNC(=O)c1ccc(Br)o1	-10%	nt	-2%	-2%[46.1 µM]	12%[46.1 µM]	-4%	nt	1%
O=C(Nc1ccc2ccccc2n1)c1ccccc1Br	-24%	nt	3%	?	?	-3%	nt	37%[activator]
COc1ccc2nc(N3CCC(C)CC3)c(C#N)cc2c1	-11%	-11%	-14%	?	13%	-18%	-5%	70%[activator]
CCc1ccccc1NC(=O)CN(c1cccc(C)c1C)S(C)(=O)=O	nt	-1.4%	nt	?	-30%[46.1 µM]	nt	3%	9%
CCOc1ccc(N2CC(c3nc4ccccc4n3CCC3CCCCC3)CC2=O)cc1 (configuration not stated)	nt	-2.6%	nt	1%[46.1 µM]	3%[46.1 µM]	nt	-9%	?
CCOc1ccc(N(CC(=O)NCCOc2ccccc2OC)S(=O)(=O)c2ccccc2)cc1	5%	nt	-18%	?	-22%	4%	nt	-13%
COc1cc2sc(NC(=O)c3ccco3)nc2cc1Cl	-2%	nt	-4%	nt	nt	-3%	nt	68%[activator]
COc1cc(C)ccc1OCCCn1c(-c2ccc(Cl)cc2)nc2ccccc2c1=O	nt	-0.8%	nt	-1%[46.1 µM]	-3%[46.1 µM]	nt	-8%	-9%
Clc1ccc(/C=N/N2CCCCC2)cc1	-1%	nt	-1%	nt	nt	0%	nt	54%[activator]
CC(C)OC(=O)C[N+](C)(C)CCN1C(=O)C2C(c3ccccc3)C=CC(c3ccccc3)C2C1=O (configuration not stated)	2%	nt	2%	2%[46.1 µM]	6%[46.1 µM]	-1%	nt	15%
CC(C(=O)NC(C)(C)C)N(C(=O)CS(=O)CC(=O)Nc1ccc(F)cc1)c1ccccc1F (configuration not stated)	9%	nt	nt	8%[46.1 µM]	7%[46.1 µM]	-2%	nt	-4%
N/C(Cc1cccs1)=N\OC(=O)COc1ccc(Cl)cc1Cl	-29%	-5.5%	-8%	?	20%	-27%	-4%	38%[activator]
OCc1ccccc1CN1CCCCCC1	17%	nt	nt	-2%[46.1 µM]	-2%	nt	nt	-19%
Nc1cc([N+](=O)[O-])cc2oc(-c3ccccc3)cc12	-2%	nt	2%	nt	nt	-1%	nt	55%[activator]
N=c1c2ccccc2nnn1-c1ccc(C(F)(F)F)cc1	16%	nt	nt	-8%[46.1 µM]	13%	-2%	nt	16%
CC(=O)Nc1ccc(C(=O)Nc2ccc3c(c2)OCO3)cc1	-5%	0.7%	4%	9%	10%	3%	-19%	0%
Cc1ccc(C(=O)COC(=O)CCC(=O)Nc2ccc(Oc3ccccc3)cc2)cc1C	nt	-5.0%	nt	-3%[46.1 µM]	13%[46.1 µM]	nt	3%	16%
CN(Cc1ncc[nH]1)C(=O)c1cc(COc2c(F)cccc2F)on1	-1%	nt	5%	nt	nt	-3%	nt	4%
CC(=O)Nc1nc(C)c(-c2csc(Nc3ccccn3)n2)s1	-4%&69%	nt	3%&-8%	?	-26%	-4%&-7%	nt	6%&3%
O=c1c2cc(Cl)ccc2nc(-c2ccccc2Cl)n1O	-3%	nt	nt	?	-8%	7%	nt	-3%
CC1(C(=O)N2CC3(CC(c4cccc(NC(=O)COc5ccc(Cl)cc5)c4)=NO3)C[C@@H]2C(N)=O)CC1 (some centres not stated)	3%	nt	-4%	nt	nt	-2%	nt	-29%
O=c1oc2ccccc2c(NCc2ccc(Cl)cc2)c1[N+](=O)[O-]	-14%	nt	-4%	nt	nt	-2%	nt	-21%
COc1cc2oc(=O)cc(-c3ccc(-c4ccc(N(C)C)cc4)cc3)c2c(OC)c1OC	?	-0.4%	nt	nt	nt	-21%	5%	-9%

(listing goes on)
Structure	RE007 growth inh	Cruzain inh Det	NS1 inh	MARV entry inh	LASV entry inh	SARS PLpro yeast	Cruzain inh noDet	2A StopGo
CCc1cc(=O)[nH]c(SCc2cccc3ccccc23)n1	15%	nt	-15%	nt	nt	-4%	nt	-15%
CC(C)(C)OC(=O)CNC(=O)c1[nH]cnc1C(=O)N[C@@H](CCCCNC(=O)OC(C)(C)C)C(=O)OC(C)(C)C	4%	nt	-1%	nt	nt	-1%	nt	?
COc1cc(NC(=O)C2CCCN(S(=O)(=O)c3ccc4[nH]c(=O)ccc4c3)C2)cc(OC)c1 (configuration not stated)	4%	nt	-3%	-1%[46.1 µM]	?	2%	nt	-20%
CC(=O)c1ccc(Oc2cc(C)nc(NCc3ccccc3)n2)cc1	20%	-0.1%	2%	?	?	10%	-2%	-29%
c1ccc(COc2ccccc2CNCc2cccnc2)cc1	4%	1.9%	?	?	-2%	8%	-10%	nt
CCOc1ccc(NC(=O)Cn2cc(C(=O)C3CC3)c3ccccc32)cc1	8%	-0.6%	-9%	-1%&-3%[46.1 µM]	?	-15%	21%	-11%&-17%

Screening results deposited in PubChem BioAssay by National Center for Advancing Translational Sciences (NCATS).
